gsp ag – qHTS for Agonist of gsp, the Etiologic Mutation Responsible for Fibrous Dysplasia/McCune-Albright Syndrome: qHTS; gsp mutant cells, cAMP HTRF, 30 min; control for the full effect not named in the record; hit rate 0.13% among 340,000; Potency, µM (series often up to 76.9 µM), for the others: top-dose activation (cAMP increase), most hits filed as activators; active = well fitted activation curve with a large enough effect; inconclusive = small, poorly fitted or top-dose-only effect, or another doubt; inactive = no such curve, though single readings can be large or run the other way; cell line not stated here;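 note: phosphodiesterase inhibitor Ro 20-1724 added with compounds to block cAMP breakdown; potency is the fitted concentration of half-maximal effect; nearly all actives have a fitted effect of over 60% in size; about a fifth of the inactives were tested at one dose only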
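Cells stably selected in G418 were plated at 2000/well, grown 16-24 hr, then given compounds in DMSO with the PDE inhibitor […] (300 uM solution added) for 30 min at 37C; cAMP was read by HTRF.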
PINK1 expr mod – A Quantitative High throughput Screen to Identify Chemical Modulators of PINK1 Expression; PINK1 immunofluorescence, high-content cytometry, 24 h; Potency, µM (top dose mostly 76.6 µM), inactives show at the highest dose activation (PINK1 increase), hits mostly activators; hit rate 0.2% among 410,000; active = well fitted activation curve with a large enough effect; inconclusive = small, poorly fitted or top-dose-only effect; inactive = flat fitted curve, though single readings scatter; cell line not stated here;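 note: potency is the fitted concentration of half-maximal effect; % of control where 0% means no effect; nearly all actives have a fitted effect of over 65% in size; a mitochondrial uncoupler was the plate control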
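Fluorescence from anti-PINK1 antibody, together with nuclear and cell stains, was scanned on a laser-scanning cytometer. Before staining, stable-line cells were incubated 24 hours with compounds at 5 concentrations; primary antibody 12 h at 10 degrees C.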
Sfp inh – qHTS Assay for Inhibitors of Bacillus subtilis Sfp phosphopantetheinyl transferase (PPTase); 4'-phosphopantetheinyl transferase ffp (Bacillus subtilis), Q9F4F7; Biochemical Sfp PPTase activity, qHTS; Potency, µM, for the others: max response, negative = inhibition, hits mostly inhibitors; hit rate 3.5% among 310,000; AID 1490, 2009; active = well fitted inhibition curve with a large enough effect; inconclusive = small, poorly fitted or top-dose-only effect, or another doubt; inactive = no such curve, though single readings can be large or run the other way;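 note: the enzyme is Sfp with the accession as filed and its product quenches rhodamine fluorescence; potency is the fitted concentration of half-maximal effect; 0% = enzyme reaction without inhibitor and -100% = no enzyme wells; top concentration of the series not given in the record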
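Fluorescence-quenching assay: 15 nM Sfp-PPTase preincubated 15 min at room temperature with compound, then 5 uM rhodamine-CoA and 12.5 uM BHQ-2-labelled YbbR peptide added. Fluorescence (ex 525/em 598 nm) read at start and after 30 min; difference gives rate.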
ClpP mod – qHTS Assay for Activators of ClpP; hit rate 1.9% among 340,000; Potency, µM (top dose mostly 57.5 µM), for inactives: at the highest dose activity change, negative = active; ATP-dependent Clp protease proteolytic subunit (Bacillus subtilis (strain 168)), P80244; purified B. subtilis ClpP, FRET peptide cleavage, 20 min; AID 651965, 2013; active = well fitted falling curve with a large enough effect; inconclusive = small, poorly fitted or top-dose-only effect; inactive = no such curve, though single readings can be large or run the other way; note: potency is the fitted concentration of half-maximal effect; the source files actives as falling curves though it sought activators and does not explain the sign; nearly all actives have a fitted effect of over 65% in size; many hits overshoot -100%
Target sequence (P80244 whole entry, looked up): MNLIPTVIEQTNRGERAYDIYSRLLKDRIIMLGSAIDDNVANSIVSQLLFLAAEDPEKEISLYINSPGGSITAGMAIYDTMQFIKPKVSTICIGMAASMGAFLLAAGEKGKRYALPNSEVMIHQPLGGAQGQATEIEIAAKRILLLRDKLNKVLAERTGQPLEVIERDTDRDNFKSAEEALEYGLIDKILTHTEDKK
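Purified B. subtilis ClpP, 10 microg/mL final in Tris/HCl pH8 with KCl, BSA, glycerol and Tween-20, cleaved an Abz/nitrotyrosine-quenched decapeptide. Fluorescence (ex 320, em 430) was read at 0 and 20 min at room temperature. Delta was normalized to 5.8 microM ADEP and DMSO/no-enzyme controls.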
D2 agonist – Beta-Arrestin HTS for Positive Allosteric Modulators of the Human D2 Dopamine Receptor: Agonists | D(2) dopamine receptor (Homo sapiens), P14416 | hit rate 0.084% among 360,000 | activation, % (no concentration beside the values) | DiscoveRx PathHunter D2 beta-arrestin, luminescence, 90 min; 100% = 57 uM dopamine signal; in the data active = activation above about 40%; inconclusive = about 15% to 40%; inactive = below about 15%; note: compound concentration not given in the record; the text of the record calls up to 30% inactive
Target sequence (P14416 whole entry, looked up): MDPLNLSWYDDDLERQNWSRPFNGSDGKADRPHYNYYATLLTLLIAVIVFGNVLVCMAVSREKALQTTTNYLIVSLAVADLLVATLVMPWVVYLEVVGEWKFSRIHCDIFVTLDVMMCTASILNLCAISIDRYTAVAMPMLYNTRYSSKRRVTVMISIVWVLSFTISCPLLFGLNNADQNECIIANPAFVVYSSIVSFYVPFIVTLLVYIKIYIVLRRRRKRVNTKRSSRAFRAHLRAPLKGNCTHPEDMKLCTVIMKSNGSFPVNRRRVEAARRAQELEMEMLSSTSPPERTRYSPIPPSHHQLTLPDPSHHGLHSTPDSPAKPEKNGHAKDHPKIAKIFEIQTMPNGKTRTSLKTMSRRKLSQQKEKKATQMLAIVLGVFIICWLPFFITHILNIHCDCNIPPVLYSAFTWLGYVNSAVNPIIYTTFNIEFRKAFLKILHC
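DiscoveRx PathHunter D2 beta-arrestin cells (2,100/well) attached overnight, then compound-stimulated 90 min at 37 C in HBSS/10 mM HEPES/0.1% Tween-20 buffer; beta-galactosidase complementation read by luminescence after 1 h at ambient temperature. Dopamine 57 uM final (EC100) as control.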
Menin-MLL FL inh – qHTS Assay for Inhibitors Targeting the Menin-MLL Interaction in MLL Related Leukemias: Competition With Fluorescein Labeled MLL-derived Peptide; Fluorescence polarization, fluorescein-MLL peptide displacement from menin; FP activity change, % at 61.4 µM; 290,000 tested, under 10 active; inconclusive = falling polarisation curve, or a change in total fluorescence; inactive = total fluorescence flat and polarisation flat or rising; no compound was filed as active; the % refers to the polarisation; negative = inhibition;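 note: % of control where 0% means no effect; inhibitors lower the polarisation; unlabelled MLL peptide was the positive control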
gsp antagonist – qHTS for Antagonists of gsp, the Etiologic Mutation Responsible for Fibrous Dysplasia/McCune-Albright Syndrome: qHTS; gsp-mutant cells, cAMP HTRF, 30 min; control for the full effect not named in the record; Potency, µM (doses to about 76.9 µM), inactives show at the highest dose activity change, negative = inhibition, hits mostly inhibitors; hit rate 0.4% among 340,000; active = falling curve of any shape with a large fitted effect; inconclusive = falling curve, mostly with a smaller effect; inactive = flat or rising curve; cell line not stated here;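 note: intracellular cAMP measured with PDE inhibitor Ro 20-1724 present during compound exposure; potency is the fitted concentration of half-maximal effect; % is set by controls: 0 for no effect and ±100 for the full control effect; nearly all actives have a fitted effect of over 65% in size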
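Cells in G418 medium, seeded 16-24 h, 37C; buffer exchange to DPBS + 1 mM CaCl2, 0.5 mM MgCl2, 0.05% BSA; cpds in DMSO + […] (300 uM stock), 30 min 37C; HTRF cAMP detection.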
An asterisk follows results filed as active; u = inconclusive; x = not tested or not shown; & = joins results of further samples; [ ] = another dose, or the depositor's remark.

SMILES | gsp ag | PINK1 expr mod | Sfp inh | ClpP mod | D2 agonist | Menin-MLL FL inh | gsp antagonist
Cc1cc(C)nc(Nc2n[nH]c(COc3ccc4ccccc4c3)n2)n1 | u | 22%[38.3 µM] | 16% | -2.3% | -1.4 | 2.6 | 2%
c1ccc(C[C@H]2CN=C(Nc3ccccc3)N2CCCC2CCCC2)cc1 | -45% | 6.1% | -27% | -0.8% | -0.4 | 4.4 | 10%
O=C(COC(=O)Cc1n[nH]c(=O)c2ccccc12)Nc1c(Br)cc([N+](=O)[O-])cc1Br | -20% | 0.6% | x | 1.1% | 8.0 | x | -15%
Cc1ccc(OCCn2c(=S)[nH]c3c(N)ncnc32)cc1 | 22%[15.4 µM] | 3.9% | -57% | -2.0% | -7.0 | 2.3 | -12%
CC(C(=O)Nc1ccccc1Oc1ccccc1)c1ccccc1 (stereo unspecified) | 22% | 8.8% | -7% | 1.9% | 0.4 | 8.1 | -21%
O=C(O)c1cccc(N2C(=O)c3cccc4c(Cl)ccc(c34)C2=O)c1 | 22% | 3.2% | u | x | 7.8 | u | u
CCOc1ccc(CNC(=O)c2nnc(CS(=O)(=O)c3ccccc3)o2)cc1OC | 4% | -0.5% | 7% | -1.9% | -4.1 | 0.8 | -2%
CCC(C)Nc1nc2c(c(=O)n(C)c(=O)n2C)n1C (stereo unspecified) | -13%[15.4 µM] | -1.4% | -4% | x | u | 0.2 | 3%
CCNC(=S)Nc1ccccc1-c1ccccc1 | 9%[15.4 µM] | 0.4% | 3% | x | -8.1 | 4.7 | 6%
COc1ccc(NC(=O)C/C(C)=N/NC(=O)c2cccs2)c([N+](=O)[O-])c1 | 0%[15.4 µM] | 0.2% | 4% | x | -6.2 | -7.5 | -4%
Cn1ccnc1C(O)(c1ccccc1)c1ccccc1 | -13%[15.4 µM] | 0.3% | -22% | x | -0.2 | 1.9 | 10%
CCOCCCNC(=O)CSc1ccccc1 | -13% | -2.3% | 20% | 0.2% | -0.1 | -0.5 | -12%
C#CC(C)(CC)NC(=O)c1cc2nc(C3CC3)cc(C(F)(F)F)n2n1 (stereo unspecified) | u | 1.0% | 15% | x | 0.8 | -2.6 | 5%
COc1cc(NC(=O)c2cncc(-c3ccc(C#N)cc3)c2)cc(C(=O)Nc2cccc(C(F)(F)F)c2)c1 | u | 2.2%&2.1% | 2% | -12%&-0.6% | -2.4&-2.0 | 7.1 | 4%
COC(=O)CNC(=O)C1CC(=O)N(CCc2ccc(F)cc2)C1 (stereo unspecified) | -9%[15.4 µM] | 0.7% | 17% | -2.1% | 4.4 | -7.3 | 6%
Cc1ccccc1/C=C/C(=O)NCC(=O)N1CCC(N(C)C2CCCCC2C)CC1 (stereo unspecified) | -8% | 1.3% | -5% | -1.1% | 5.2 | -1.3 | 6%
COc1ccc(-c2[nH]ncc2CN(CC2CCC(=O)N2)C(C)C)cc1F (stereo unspecified) | 1%[15.4 µM] | 0.6% | 8% | x | -2.6 | -0.7 | 0%
Cc1ccc(-c2nn(-c3ccccc3)cc2/C=C(\C#N)c2cccc(C#N)c2)o1 | 3% | u | -29% | -1.2% | 0.0 | 2.3 | -5%
CCOC1=C2CN(S(=O)(=O)c3ccc(C)cc3)[C@@H](c3ccc(CC)cc3)C[C@H]2[C@H]2C(=O)N(c3ccccc3)C(=O)[C@H]2C1 | x | 3.8% | x | 0.3% | -6.9 | x | x
CCOc1ccc(C(=O)OCC(=O)N(Cc2ccccc2)Cc2ccccc2)cc1OC | 1% | 0.8% | x | -8.5% | -5.9 | x | -17%
COc1cc2oc(=O)cc(C)c2c(OC)c1OC | 12% | 4.0% | 0% | x | 3.1 | 2.1 | 9%
CSCC[C@H](NC(=O)N1CCn2c1nc1ccccc12)C(=O)N[C@H](Cc1ccccc1)C(=O)O | x | -0.9% | 10% | 1.5% | -4.2 | 1.8 | 5%
Cc1cccc(N2CCN(C(=O)c3ccc(Cl)c(NC4=NC5CS(=O)(=O)CC5S4)c3)CC2C)c1 (stereo unspecified) | -43%[inhibitor] | -0.9% | 7% | 1.2% | -1.5 | x | -15%
CC(C)Oc1ccc(C(=O)Nc2ccc(N3CCN(C(=O)c4ccco4)CC3)cc2)cc1 | 4% | 7.8% | 15% | x | -3.3 | 3.6 | -4%
COc1ccc(Nc2ccc(N3C(=O)CC(C)C3=O)cc2[N+](=O)[O-])cc1OC (stereo unspecified) | 4% | 0.7% | 16% | x | -1.3 | 2.7 | -6%
COc1ccc(-c2sc3cc4c(cc3c2-c2ccc(OCCN3CCCCC3)cc2)OCO4)cc1 | x | -0.5% | x | u | 9.8 | x | -8%
COC(=O)c1ccc(CSc2nnc3nc(C)cc(C)n23)cc1 | 27%[15.4 µM] | 4.6% | -10% | 0.9% | -3.0 | -1.3 | -26%
O=C(NCc1ccco1)Nc1cccs1 | u | 0.8% | 18µM* | 1.5% | -1.9 | u | -2%
COc1ccc(CC(=O)O/N=C(\N)c2ccccc2)cc1OC | 20%[15.4 µM] | 0.7% | 7% | x | 2.9 | -9.4 | 4%
COCCNc1nc(NC(C)C)nc2ccsc12 | x | 1.5% | x | u | -5.2 | x | x
CCc1ccc2oc(-c3ccc(NC(C)=O)cc3)nc2c1 | 11%[15.4 µM] | 2.2% | 10% | -9.1% | 0.4 | 5.7 | -7%
O=C(NCc1cccnc1)c1cccs1 | 5%[15.4 µM] | -0.6% | 12% | 0.6% | -4.9 | 0.3 | 11%
COc1ccc(CN2CNc3c(c(=O)n(C)c(=O)n3C)C2)cc1 | -7%[15.4 µM] | -1.5% | 1% | 0.9% | 1.6 | -1.2 | 4%
CC(=O)c1cccc(S(=O)(=O)N2CCCC(c3nc4c(nnn4Cc4ccc(C)cc4)c(=O)[nH]3)C2)c1 (stereo unspecified) | u | 1.3% | 1% | x | 0.7 | 1.0 | -1%
CN(C)c1ccc(N=Nc2ccc3ncccc3c2)cc1 | -3% | 7.8% | x | x | 1.1 | x | 6%
CN(C(=O)COC(=O)CCc1nc2ccccc2c(=O)[nH]1)C1CCS(=O)(=O)C1 (stereo unspecified) | 6% | 2.3% | 8% | -1.2% | -11 | 1.1 | 9%
C=CC[C@H](CC(=O)N[C@H](CO)Cc1ccccc1)C(=O)N[C@@H](COC(=O)[C@@H](CC=C)Cc1ccc(F)cc1)Cc1c[nH]c2ccccc12 | 18% | 2.4% | x | -2.3% | -3.9 | x | -4%
COc1ccc(C(=O)NCC(=O)N/N=C(\C)Cc2ccccc2)cc1 | 11% | 0.3% | -5% | -0.8% | -2.9 | x | -2%
Cc1ccc(C(=O)Nc2ccccc2C(=O)NCc2ccccc2)cc1 | -69%[inhibitor] | 13% | 20% | -1.0% | -0.7 | 5.3 | -23%
O=C(CSc1nc2c(cnn2-c2ccc(F)cc2)c(=O)[nH]1)N1CCCCC1 | u | 1.3% | 7% | 1.8% | 6.1 | 0.9 | -12%
O=S(=O)(c1cc(F)ccc1F)N1CCN2CCCC2C1 (stereo unspecified) | 5% | 1.8% | 17% | -0.5% | 1.7 | 2.6 | 1%
COc1cccc(-n2c(SCC(=O)NCC3CCCO3)nc3c(c2=O)SCC3)c1 (stereo unspecified) | -7% | 0.0% | 7% | 0.7% | -3.1 | x | -11%
CCOC(=O)CCNC(=O)CCNC(=O)C(c1ccccc1)c1ccccc1 | 13%[15.4 µM] | 0.2% | -6% | -0.6% | -3.5 | 0.9 | -11%
COc1ccc(CC(=O)NC(C)c2nnc(SCC(=O)Nc3ccccc3)n2C)cc1 (stereo unspecified) | -23% | -2.3% | -4% | 0.5% | 2.1 | -0.2 | 4%
COc1ccc(C2=NOC3(CC(=O)N(c4ccc(Cl)cc4)C3=O)C2)c(OC)c1 (stereo unspecified) | 7% | -0.2%[38.3 µM] | 3% | 9.7% | -0.5 | -4.6 | 4%
CCCNc1nc(N2CCOCC2)nc(N2CCOCC2)n1 | -2% | 0.2%[38.3 µM] | 18% | -1.0% | 0.5 | 0.1 | 6%
COC(=O)c1ccc(C(=O)OC)c(NC(=O)CCS(=O)(=O)Cc2ccccc2)c1 | -12% | -0.7% | -8% | 3.6% | -2.0 | -1.4 | 8%
O=C(NC(=S)Nc1ccc2[nH]c(=O)[nH]c2c1)c1cncc(Br)c1 | -1%[15.4 µM] | 8.2% | -29% | x | -9.7 | -1.3 | -9%
c1ccc2c(N3CCNCC3)nc(-c3ccoc3)nc2c1 | x | -0.5% | 2% | x | x | 1.9 | x
CN(CCCC(=O)Nc1ccncc1)S(=O)(=O)c1ccc(Cl)cc1 | -3% | -0.9% | 0% | -0.6% | 3.9 | 0.6 | -10%
O=C1N(Cc2cccnc2)C[C@@H]2C[C@@H](c3cccc(OCc4ccccc4)c3)N3CCC[C@@]123 | 1%[15.4 µM] | 1.9% | 5% | x | -2.5 | 2.5 | u
CCOc1ccc(C)cc1S(=O)(=O)NC1CCCCC1 | -15% | -0.5%[38.3 µM] | 6% | -0.4% | -2.0 | 2.0 | 3%
c1ccc(CCN(Cc2ccccc2)Cc2nc(C3CC3)no2)cc1 | -5%[15.4 µM] | 9.9% | -3% | x | -2.5 | -0.4 | 1%
COCCOC(=O)C1=C(C)NC(=O)NC1c1cc2c(cc1Br)OCO2 (stereo unspecified) | 13% | -0.7% | 11% | x | 2.5 | -13 | 2%
